StopGo reporter: High Throughput Screening for Foot and Mouth Disease Virus Antivirals | Potency, µM (top dose mostly 57.9 µM), inactives show at the highest dose signal change, negative = less light | AID 1159524, 2015 | human cells with a luciferase reporter of 2A StopGo recoding; control for the full effect not named in the record | hit rate 1.2% among 410,000; active = well fitted falling curve with a large enough effect; inconclusive = small, poorly fitted or top-dose-only effect; inactive = no such curve, though single readings can be large or run the other way; tested in HEK293T cells; note: % is set by controls: 0 for no effect and ±100 for the full control effect; nearly all actives have a fitted effect of over 45% in size; luciferase light after 4 h
RE007 growth inh: qHTS Assay for Inhibitors of the HIV-1 protein Vpr; S. pombe RE007 Vpr strain, BacTiter-Glo ATP luminescence, 24 h; control for the full effect not named in the record; Potency, µM (doses to about 92.2 µM), without a hit: at the highest dose activity change, negative = less growth; hit rate 0.21% among 360,000; AID 651644, 2012; active = well fitted falling curve with a large enough effect; inconclusive = small, poorly fitted or top-dose-only effect; inactive = no such curve, though single readings can be large or run the other way;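 note: % is set by controls: 0 for no effect and ±100 for the full control effect; nearly all actives have a fitted effect of over 50% in size; the assay follows cell death caused by Vpr and the record does not say whether a fall means rescue or toxicity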
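Fission yeast RE007 carrying one integrated HIV-1 vpr copy, seeded at OD 0.01 in PMG+AL medium with 23 nL pinned compound. Grown 24 h at 30 degrees; viability read by BacTiter-Glo luminescence after 5 min.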
SARS PLpro yeast: qHTS of Yeast-based Assay for SARS-CoV PLP | S. cerevisiae expressing SARS-CoV PLpro, growth rescue; control for the full effect not named in the record | Potency, µM (titrated, usually from 32.9 µM), for inactives: at the highest dose activity, positive = growth rescue | hit rate 0.19% among 330,000 | AID 485353, 2010; active means well fitted rising curve with a large enough effect; inconclusive means small, poorly fitted or top-dose-only effect; inactive means no such curve, though single readings can be large or run the other way; note: 0% is about no effect; nearly all actives have a fitted effect of over 55% in size; growth read by luminescence after 48 h
The depositor's hits bear a star; ? = inconclusive; [ ] = another dose, or the depositor's remark. Potency is the fitted concentration of half-maximal effect. Some of the compounds tested; count on the stated rates, not on these rows.

The opening 4 compounds (preview)
The line under a structure holds: StopGo reporter	RE007 growth inh	SARS PLpro yeast
1) COc1ccc2[nH]cc(CCNC(=O)CC[C@H]3O[C@@H](n4cc(C)c(=O)[nH]c4=O)C[C@@H]3O)c2c1
    -18%	4%	-26%
2) C[C@H]1CN([C@@H](C)CO)C(=O)Cc2cc(NC(=O)Cc3cn(C)c4ccccc34)ccc2O[C@@H]1CN(C)S(=O)(=O)c1cn(C)cn1
    -9%	-5%	1%
3) CN(c1ccccc1)S(=O)(=O)c1ccc(C(=O)NCC(c2ccco2)N2CCCCC2)cc1 (stereo not drawn)
    ?	0%	-5%
4) O=C(C[C@H]1C/C=C\CC[C@H](Cc2ccc(F)cc2)C(=O)OC[C@@H]2CCCN2C1=O)N[C@H](CO)Cc1ccccc1
    0%	-4%	-4%

This part in full (from the top)
The line under a structure holds: StopGo reporter	RE007 growth inh	SARS PLpro yeast
1) COc1ccc2[nH]cc(CCNC(=O)CC[C@H]3O[C@@H](n4cc(C)c(=O)[nH]c4=O)C[C@@H]3O)c2c1
    -18%	4%	-26%
2) C[C@H]1CN([C@@H](C)CO)C(=O)Cc2cc(NC(=O)Cc3cn(C)c4ccccc34)ccc2O[C@@H]1CN(C)S(=O)(=O)c1cn(C)cn1
    -9%	-5%	1%
3) CN(c1ccccc1)S(=O)(=O)c1ccc(C(=O)NCC(c2ccco2)N2CCCCC2)cc1 (stereo not drawn)
    ?	0%	-5%
4) O=C(C[C@H]1C/C=C\CC[C@H](Cc2ccc(F)cc2)C(=O)OC[C@@H]2CCCN2C1=O)N[C@H](CO)Cc1ccccc1
    0%	-4%	-4%
5) COc1ccccc1N(C)S(=O)(=O)c1ccc(C(=O)Nc2nccs2)cc1
    0%	19%	1%
6) COc1c(F)cccc1C1=CC(=O)C[C@H](c2ccc3c(c2)OCO3)C1
    6%	-2%	1%
7) CC(C)N(C(=O)[C@H]1C[C@H](CC(=O)NCc2ccco2)C(=O)N2CCc3c([nH]c4ccc(Cl)cc34)[C@]12C)C(C)C
    ?	7%	-54%
8) COc1ccc(-c2sc3ccccc3c2/C=C/c2ccc(N)cc2)cc1
    22%	0%	-12%
9) O=C1C=C(c2cc3ccccc3s2)C[C@@H](c2ccc3c(c2)OCO3)C1
    -7%	8%	-2%
10) CN(CC(=O)Nc1ccc(Cl)c(C(F)(F)F)c1)C(=O)c1ccc2c(c1)NC(=O)CS2
    ?	14%	3%
11) CCCCCCC[C@@H](C/C=C/CCC(=O)N(C)C/C(=C/Cl)C/C(=C\C(=O)N1CC(OC)=CC1=O)OC)OC
    ?	2%	4%
12) O=C(COC(=O)c1nc(Cl)ccc1Cl)NC1CCCCC1
    -11%	-10%	3%
13) CCOc1cc(C(=O)NC2=NCCS2)cc(OCC)c1OCC
    25%	14%	-3%
14) O=C(c1ccc(F)c(S(=O)(=O)N2CCOCC2)c1)N1CCN(c2ncccn2)CC1
    -8%	-15%	4%
15) CN(c1ccc2nc3ccccc3c(=O)n2n1)C1CCCCC1
    20µM*	-13%	-13%
16) CC(C)c1ccc(CN(C)C(=O)c2ccc(S(=O)(=O)NCc3ccco3)cc2)cc1
    -26%	0%	3%
17) CN(C)CCCN(C(=O)c1ccc(S(=O)(=O)N(C)C)cc1)c1nc2ccc(F)cc2s1
    11%	11%	4%
18) COc1ccc(NC(=O)COC(=O)C2CC2)cc1S(=O)(=O)N1CCCCC1
    -8%	6%	5%
19) Cc1cccc(OC(=O)CCN2C(=O)C3C4C=CC(C5CC45)C3C2=O)c1C (stereo not drawn)
    -2%	6%	0%
20) O=C(O)c1ccccc1C(=O)OCCc1cc2ccccc2c(=O)o1
    28%	2%	3%
21) CCCCNC(=O)c1ccc(CS(=O)(=O)Cc2ccccc2F)o1
    23%	0%	0%
22) CC1CCCC(NC(=O)COC(=O)c2cc(=O)[nH]c3ccccc23)C1C (stereo not drawn)
    -17%	2%	-9%
23) COc1ccc(CNC(=O)c2cc(C3CC3)nc3c2cnn3C(C)C)cc1
    -1%	-17%	-2%
24) C=CCC[C@@H](Cc1ccc(F)cc1)C(=O)OC[C@@H](Cc1c[nH]c2ccccc12)NC(=O)[C@@H](CC=C)CC(=O)N[C@H](CO)Cc1ccccc1
    -19%	1%	3%
25) COC(=O)C1CCN(C(=O)COC(=O)/C=C/c2ccc(O)c(OC)c2)CC1
    -23%	-11%	1%
26) CCCCCCCNC(=O)C1(CC2CC(c3ccccc3)=NO2)CCNCC1 (stereo not drawn)
    -5%	-2%	9%
27) COCCN(CC(=O)Nc1cccc(C)c1C)C(=O)c1oc2ccccc2c1C
    -7%	16%	0%
28) O=C(Cc1ccccc1)Nc1cccc(S(=O)(=O)N2CCCCCC2)c1
    17%	6%	2%
29) O=C(OCC(=O)N1CCN(c2cccc(Cl)c2)CC1)c1ccco1
    6%	-14%	7%
30) CON(C)C(=O)c1ccccc1N(C)C(=O)OC(C)(C)C
    4%	16%	0%

The line under a structure holds: StopGo reporter	RE007 growth inh	SARS PLpro yeast
31) CCCN(CC1CC1)C(=S)NC(=O)c1ccccc1Br
    -7%	10%	10%
32) CCC[C@@H](CN1CCC[C@H]1CN1C(N)=NC[C@H]1C(C)C)N1C[C@@H](Cc2ccccc2)N(CCCC2CCCC2)C1=N
    -13%	17%	-3%
33) CCNC(=O)COC(=O)c1ccc(-c2nc3ccccc3s2)s1
    6%	-9%	-10%
34) O=C1C=C(c2cc(F)ccc2F)C[C@@H](c2ccc(F)cc2)C1
    -25%	-11%	-17%
35) CN(C)C(=O)CCc1ccc2c3c([nH]c2c1)[C@]1(CCC2CCCC2)[C@@H](C(=O)N2CCOCC2)C[C@H](CC(=O)NCc2cccc(C(F)(F)F)c2)C(=O)N1CC3
    -24%	7%	2%
36) CC(OC(=O)c1cc2ccccc2o1)C(=O)Nc1ccc(N2CCOCC2)cc1 (stereo not drawn)
    2%	-8%	0%
37) C[C@]12c3[nH]c4ccc(Cl)cc4c3CCN1C(=O)[C@@H](CC(=O)NCCC1=CCCCC1)C[C@@H]2C(=O)N1CCCCC1
    -13%	9%	-10%
38) O=C(NCCN1C(=O)S/C(=C/c2cccnc2)C1=O)c1cccs1
    -7%	-1%	-2%
39) COc1ccc(NS(=O)(=O)c2cc(NC(=O)COc3ccccc3F)ccc2OC)cc1
    34%[activator]	4%	1%
40) Cc1c(Br)c([N+](=O)[O-])nn1CCCC(=O)NC(C)c1ccccc1 (stereo not drawn)
    -1%	-8%	-1%
41) N/C(=N\OCc1ccccc1)c1nonc1N
    55%[activator]	0%	-4%
42) CCN1C(=O)[C@@H]2[C@@H](c3ccc(-c4ccccc4)cc3)N3CCCC[C@@]3(C(=O)OC)[C@@H]2C1=O
    -22%	8%	-2%
43) CNC(=S)N/N=C/c1ccc(N2CCOCC2)s1
    21%	12%	0%
44) CCOC(=O)N1CCC(NCCNC(=O)c2ccc(F)cc2)CC1
    -16%	6%	-29%
45) COc1ccc(NS(=O)(=O)c2ccc(O)c(C(=O)OCC(=O)N3CCCCC3)c2)cc1
    -5%	2%	-7%
46) COC(=O)c1cn(-c2ccccc2)nc1-c1ccc(OC)cc1
    16%	-20%	0%
47) COC(=O)c1ccc(NC(=O)CCN2C(=O)C3CC=CCC3C2=O)cc1 (stereo not drawn)
    38%[activator]	1%	-9%
48) COc1ccc(-n2cnc3cc(C(=O)N4CCC5(CC4)OCCO5)ccc32)cc1
    40%[activator]	-6%	2%
49) CCN[C@H]1CN(CCCOC)S(=O)(=O)c2sc(S(N)(=O)=O)cc21
    0%	5%[18.4 µM]	6%
50) CC(=O)c1c(NCCc2ccccc2)nc(=S)n(-c2ccccc2)c1C
    ?	-17%	1%
51) CCOC(=O)C1=CN(Cc2ccco2)S(=O)(=O)N(C)C1c1ccc(C(F)(F)F)cc1 (stereo not drawn)
    -12%	17%	-36%
52) O=C(NC[C@@H]1CC[C@@H](Cc2ccc(-c3ccccc3)cc2)O1)Nc1ccc(Br)cc1
    -13%	-14%	-13%
53) CCC(C)CCN1C(N(C)C)=NC[C@@H]1C (stereo partly drawn)
    -7%	10%	-2%
54) Cc1cc(C)cc(-c2nnc(SCC(=O)NC3CC3)o2)c1
    2%	-17%	?
55) CC(=O)N1CCN(S(=O)(=O)c2cccc(C(=O)NNC(=O)Cn3nc(C)cc3C)c2)CC1
    8%	-6%	-1%
56) CCCCN=Cc1c(C)[nH]n(-c2ccccc2)c1=S
    28%	1%	5%
57) C[C@H]1COC(=O)[C@H](Cc2ccc(F)cc2)CC/C=C/C[C@@H](CC(=O)N[C@@H](CO)Cc2ccccc2)C(=O)N1
    -24%	18%	-1%
58) COc1cc(C(=O)NCCc2ccccc2)ccc1OCC(=O)N1CCOCC1
    -5%	6%	-24%
59) Cc1cccc(OCCCC(=O)Nc2ccc(Cl)c(S(=O)(=O)N3CCOCC3)c2)c1
    ?	-12%	-4%
60) O=C1C=C(c2ccoc2)N2CCC[C@H]2C1
    47%[activator]	8%	1%

The line under a structure holds: StopGo reporter	RE007 growth inh	SARS PLpro yeast
61) COc1cc(OC)c(C(=O)OCC(=O)c2ccc3c(c2)NC(=O)CO3)cc1OC
    ?	2%	3%
62) COc1ccc(NS(=O)(=O)c2ccc(C(=O)N3CCN(c4ccc(F)cc4)CC3)cc2)cc1
    ?	1%	1%
63) COc1ccc(C)cc1NC(=O)CCc1ccc(S(=O)(=O)N2CCOCC2)cc1
    -6%	5%	-9%
64) CCCCCCSc1ccc([C@@H]2[C@H]3C(=O)N(CC)C(=O)[C@H]3[C@]3(C(=O)OC)CCCCN23)cc1OC
    -30%	-9%	-4%
65) CC(OC(=O)c1ccc(O)cc1)C(=O)Nc1nc(-c2ccccc2)cs1 (stereo not drawn)
    ?	9%	-3%
66) C[C@@H]1CN([C@H](C)CO)C(=O)c2cccc(NC(=O)c3ccncc3)c2O[C@@H]1CN(C)Cc1ccc(C(=O)O)cc1
    -8%	-6%	6%
67) O=C(COC(=O)CNC(=O)c1ccc(Cl)cc1)NC1CCCCCC1
    -16%	6%	-2%
68) CCN1/C(=C/c2ccc3cc(C)cc(C)c3[n+]2CC)Sc2cc(C)ccc21
    ?	?	-25%
69) C/C(=N\S(=O)(=O)c1ccc(C)cc1)NC(=S)Nc1ccccc1
    1%	0%	5%
70) Nc1cnn(Cc2ccccc2F)c1
    -3%	-24%	14%
71) COC(=O)[C@@]12CCCCN1[C@H](c1ccc(-c3cc(C(C)=O)cs3)cc1)[C@H]1C(=O)N(C)C(=O)[C@H]12
    -12%	9%	-2%
72) Cc1ccc(S(=O)(=O)N2[C@@H](c3cccc(C)c3)C(C(=O)O)=C[C@H]2C(C)(C)C)cc1
    17%	1%	-6%
73) Oc1ccc(C[C@H]2CNCCN2CCC23CC4CC(CC(C4)C2)C3)cc1
    -23%	15%	3%
74) COCc1ccc(-c2c(-c3ccsc3)sc3ccccc23)cc1
    -18%	3%	7%
75) CS(=O)(=O)c1ccc(NS(=O)(=O)c2ccc(Cl)c(C(=O)NCc3ccco3)c2)cc1
    -17%	37%	2%
76) CCN(CC)c1ccc(NC(=O)CN2C(=O)NC3(CCc4ccccc43)C2=O)cc1 (stereo not drawn)
    14%	2%	3%
77) O=C(COC(=O)c1cccnc1Cl)Nc1cc(S(=O)(=O)N2CCOCC2)ccc1Cl
    -33%	17%	6%
78) Cn1c(-c2ccc(F)c(F)c2)cc2onc(-c3ccccc3)c2c1=O
    -8%	-14%	4%
79) COc1cccc(Cn2c(=O)ccc3ccccc32)c1
    22%	10%	0%
80) CN(CC(=O)Nc1ccccc1Br)C(=O)CNC(=O)c1cccs1
    -10%	9%	5%
81) Cc1c(Cl)cnc(NC(=O)COC(=O)CNC(=O)c2ccccc2)c1Cl
    3%	14%	1%
82) CC1CN(C(=O)COC(=O)c2ccc(NC(=O)CC#N)cc2)CC(C)O1 (stereo not drawn)
    -2%	-1%	1%
83) Cc1ccc(-c2cc(-c3ccccc3)cc(-c3ccccc3)[n+]2-c2ccc(C(=O)O)cc2)cc1
    -16%	3%	-20%
84) O=C(Nc1ccc2c(c1)OCO2)[C@@H]1CCCN1S(=O)(=O)c1cccc2cccnc12
    3%	-8%	-14%
85) CCOc1ccc(NC(=O)CCc2c(C)noc2C)cc1OC
    -20%	-12%	1%
86) CC(Oc1cccc(Br)c1)C(=O)NNC(=O)CCS(=O)(=O)c1ccccc1 (stereo not drawn)
    -1%	-25%	1%
87) Cc1ccc(S(=O)(=O)N2CCC(C(=O)OCC(=O)NC(C)c3ccc(F)cc3)CC2)cc1C (stereo not drawn)
    -21%	15%	-13%
88) O=C(CCCn1c(=O)[nH]c2ccsc2c1=O)Nc1ccc(F)cc1
    2%	-15%	4%
89) Cc1cnc(C(=O)OCC(=O)N2C(C)CCCC2C)cn1 (stereo not drawn)
    -2%	-11%	0%
90) COc1ccc(NC(=O)COC(=O)CCc2nc3ccccc3c(=O)[nH]2)c(OC)c1
    -7%	-11%	3%

Screening data (PubChem BioAssay)
